Yeast UUG start – modulators of start codon recognition fidelity in yeast | 350,000 tested, 0.13% active | AID 602363 | S. cerevisiae UUG-firefly luciferase reporter, luminescence/redox ratio | activity score, % at 18.7 µM;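 active means replicate mean at a twofold rise or more, about +100% in these data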;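 further: firefly luciferase made from a UUG start codon reports start codon fidelity; reporter light over untreated wells divided by growth signal over untreated wells; some hits fall short of that in this replicate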
HIV Env fusion – blocks HIV Env-driven cell-cell fusion; HeLa-JRFL Env/CEM21 cell fusion, luciferase; inhibition, % at 12.3 µM; 360,000 tested, 1.1% active; AID 651610;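 active means mean replicate inhibition score of at least 50 and every replicate individually at or above 50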;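 further: 0% = plate neutral controls and 100% = maraviroc near 300 nM; one replicate is shown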
Starred values were filed as active, the others as inactive; [ ] = another dose, or the depositor's remark. An excerpt, so the mix of outcomes need not match the whole.

SMILES | Yeast UUG start | HIV Env fusion
Cc1ccc(S(=O)(=O)N(C)C[C@H]2Oc3ccc(NC(=O)Nc4c(C)noc4C)cc3C(=O)N([C@H](C)CO)C[C@H]2C)cc1 | -2.9 | 3.1[16.7 µM]
C[C@@H]1CN([C@H](C)CO)C(=O)Cc2cc(NC(=O)Nc3cccc4ccccc34)ccc2O[C@@H]1CN(C)Cc1ccc(Cl)c(Cl)c1 | 10.8 | -6.4[16.7 µM]
C[C@@H]1CN([C@H](C)CO)C(=O)Cc2cc(NS(=O)(=O)c3ccc(F)cc3)ccc2O[C@@H]1CN(C)Cc1ccncc1 | -13.4 | -0.9[16.7 µM]
COc1ccc(S(=O)(=O)Nc2ccc3c(c2)CC(=O)N([C@@H](C)CO)C[C@H](C)[C@@H](CN(C)Cc2ccc(Cl)c(Cl)c2)O3)cc1 | 1.9 | 3.7[16.7 µM]
C[C@@H]1CN([C@@H](C)CO)C(=O)c2cc(NC(=O)Nc3ccccc3)ccc2O[C@@H](C)CCCCO[C@@H]1CN(C)C(=O)Cc1ccccc1 | -8.0 | -26.0[16.7 µM]
CCC(=O)N(C)C[C@@H]1Oc2ncc(-c3ccccc3F)cc2C(=O)N([C@@H](C)CO)C[C@H]1C | -7.5 | -12.4[16.7 µM]
Cc1ccc(S(=O)(=O)Nc2ccc3c(c2)CC(=O)N([C@@H](C)CO)C[C@@H](C)[C@@H](CN(C)S(=O)(=O)c2c(C)noc2C)O3)cc1 | 2.0 | -18.1[16.7 µM]
CCC(=O)Nc1ccc2c(c1)C(=O)N(C)C[C@@H](OC)[C@H](C)CN(CCC(F)(F)F)[C@@H](C)CO2 | 5.6 | -5.1[16.7 µM]
COc1ccc(S(=O)(=O)N(C)C[C@@H]2Oc3ncc(C#CC(C)(C)O)cc3C(=O)N([C@H](C)CO)C[C@@H]2C)cc1 | 2.6 | 6.2[16.7 µM]
Cc1ccc(S(=O)(=O)N(C)C[C@@H]2OCCCC[C@@H](C)Oc3ccc(NC(=O)c4ccccc4)cc3C(=O)N([C@H](C)CO)C[C@@H]2C)cc1 | -12.6 | 7.7[16.7 µM]
O=C(NCC[C@H]1CC[C@H](NC(=O)C2CCC2)[C@H](CO)O1)Nc1ccc(Cl)cc1 | 2.7 | 13.7[16.7 µM]
Cc1ccc(S(=O)(=O)Nc2cccc3c2O[C@@H](CN(C)Cc2ccccc2)[C@@H](C)CN([C@H](C)CO)C3=O)cc1 | 1.2 | -21.0[16.7 µM]
C[C@@H]1CN([C@H](C)CO)C(=O)c2cc(C3=CCCCC3)cnc2O[C@@H]1CN(C)C(=O)c1ccc2c(c1)OCO2 | -7.5 | -19.2[16.7 µM]
Cc1ccc(S(=O)(=O)N[C@@H]2CC[C@H](CC(=O)NCCN3CCCCC3)O[C@@H]2CO)cc1 | -0.2 | 5.1[16.7 µM]
COc1ccccc1S(=O)(=O)N[C@@H]1C=C[C@H](CC(=O)N2CCN(C)CC2)O[C@@H]1CO | 0.3 | -26.2[16.7 µM]
C[C@H]1CN([C@@H](C)CO)C(=O)c2cc(NS(=O)(=O)c3ccccc3)ccc2O[C@@H]1CN(C)Cc1ccc(C(=O)Nc2ccccc2N)cc1 | -4.4 | 7.8[16.7 µM]
O=S(=O)(N[C@H]1CC[C@@H](CCn2cc(-c3cccnc3)nn2)O[C@H]1CO)c1ccc(Cl)cc1 | -5.6 | 3.1[16.7 µM]
C[C@@H]1CN([C@H](C)CO)C(=O)c2cc(C#C[C@@H](C)O)cnc2O[C@@H]1CN(C)C(=O)CN(C)C | 2.0 | 1.9[16.7 µM]
COc1ccc(CNC(=O)C[C@@H]2CC[C@@H](NC(=O)c3ccc4c(c3)OCO4)[C@@H](CO)O2)cc1 | 5.3 | 3.6[16.7 µM]
O=C(N[C@H]1CC[C@@H](CCNC(=O)C2CC2)O[C@@H]1CO)c1ccccn1 | -8.3 | -11.5[16.7 µM]
COc1cc(CO)cc(I)c1O[C@H]1C=C(C(=O)NCCO)C[C@@H](N(CC2CCCCC2)C(=O)c2ccc(C(F)(F)F)cc2)[C@@H]1O | 0.5 | -13.6[16.7 µM]
Cc1noc(C)c1NC(=O)N(C)C[C@H]1OCCCC[C@H](C)Oc2ccc(NS(=O)(=O)c3ccc(F)cc3)cc2C(=O)N([C@@H](C)CO)C[C@@H]1C | 10.2 | -6.7[16.7 µM]
COc1cccc(-c2ccc3c(c2)O[C@H](CN(C)C(C)=O)[C@@H](C)CN([C@@H](C)CO)S3(=O)=O)c1 | 6.5 | -2.5[16.7 µM]
C[C@@H]1CN([C@@H](C)CO)C(=O)c2cc(NS(=O)(=O)c3ccc(F)cc3)ccc2O[C@@H]1CN(C)Cc1ccccc1 | 9.1 | -16.6[16.7 µM]
O=C(N[C@H]1CC[C@H](CC(=O)N2CCC(Cc3ccccc3)CC2)O[C@@H]1CO)c1cnccn1 | -7.1 | 10.5[16.7 µM]

In the list so far, these contain a CF3 group:
SMILES | Yeast UUG start | HIV Env fusion
CCC(=O)Nc1ccc2c(c1)C(=O)N(C)C[C@@H](OC)[C@H](C)CN(CCC(F)(F)F)[C@@H](C)CO2 | 5.6 | -5.1[16.7 µM]
COc1cc(CO)cc(I)c1O[C@H]1C=C(C(=O)NCCO)C[C@@H](N(CC2CCCCC2)C(=O)c2ccc(C(F)(F)F)cc2)[C@@H]1O | 0.5 | -13.6[16.7 µM]

3 entries from above, with values under each structure:
The line under a structure holds: Yeast UUG start, HIV Env fusion
COc1ccc(S(=O)(=O)Nc2ccc3c(c2)CC(=O)N([C@@H](C)CO)C[C@H](C)[C@@H](CN(C)Cc2ccc(Cl)c(Cl)c2)O3)cc1
 : 1.9, 3.7[16.7 µM]
C[C@@H]1CN([C@@H](C)CO)C(=O)c2cc(NC(=O)Nc3ccccc3)ccc2O[C@@H](C)CCCCO[C@@H]1CN(C)C(=O)Cc1ccccc1
 : -8.0, -26.0[16.7 µM]
CCC(=O)N(C)C[C@@H]1Oc2ncc(-c3ccccc3F)cc2C(=O)N([C@@H](C)CO)C[C@H]1C
 : -7.5, -12.4[16.7 µM]

Additional records.
SMILES | Yeast UUG start | HIV Env fusion
C[C@H]1CN([C@@H](C)CO)S(=O)(=O)c2ccc(C#Cc3ccc(F)cc3)cc2O[C@H]1CN(C)S(=O)(=O)c1cn(C)cn1 | 1.2 | 8.4[16.7 µM]
Cc1noc(C)c1S(=O)(=O)N(C)C[C@H]1OCCCC[C@@H](C)Oc2ccc(NS(=O)(=O)c3ccccc3)cc2C(=O)N([C@H](C)CO)C[C@@H]1C | 11.7 | 1.0[16.7 µM]
COc1ccc(C#Cc2ccc3c(c2)O[C@@H](CN(C)C(=O)c2ccccn2)[C@@H](C)CN([C@@H](C)CO)S3(=O)=O)cc1 | 2.1 | 5.9[16.7 µM]
C[C@@H]1CCCCO[C@@H](CN(C)C(=O)c2ccccc2)[C@H](C)CN([C@H](C)CO)C(=O)c2cc(NC(=O)Cc3ccccc3)ccc2O1 | 29.0 | -16.1[16.7 µM]
CCC(=O)Nc1ccc2c(c1)OC[C@@H](C)N(C(=O)c1ccncc1)C[C@@H](C)[C@@H](OC)CN(C)C2=O | -0.6 | 0.1[16.7 µM]
COc1ccc(S(=O)(=O)N(C)C[C@@H]2OCCCC[C@H](C)Oc3ccc(NC(=O)c4ccccc4)cc3C(=O)N([C@H](C)CO)C[C@H]2C)cc1 | -8.8 | 7.0[16.7 µM]
Cc1noc(C)c1S(=O)(=O)Nc1ccc2c(c1)C(=O)N([C@H](C)CO)C[C@H](C)[C@@H](CN(C)C(=O)NC1CCCCC1)OCCCC[C@H](C)O2 | 6.9 | -114.7[16.7 µM]
C[C@@H]1CN([C@H](C)CO)C(=O)c2cc(NC(=O)Cn3cnnn3)ccc2O[C@H]1CN(C)S(C)(=O)=O | -15.1 | -5.0[16.7 µM]
C[C@H]1CN([C@@H](C)CO)C(=O)c2cc(NC(=O)Nc3ccc4c(c3)OCO4)ccc2O[C@H]1CN(C)C(=O)Nc1ccc2c(c1)OCO2 | 18.1 | 2.5[16.7 µM]
O=C(C[C@H]1C=C[C@H](NS(=O)(=O)c2cccc(F)c2)[C@H](CO)O1)N1CCCCC1 | -14.9 | 3.3[16.7 µM]
COc1ccccc1S(=O)(=O)N[C@H]1CC[C@@H](CC(=O)N2CCOCC2)O[C@H]1CO | 3.5 | 22.2[16.7 µM]
C[C@@H]1CN([C@H](C)CO)C(=O)c2cc(NS(C)(=O)=O)ccc2O[C@@H]1CN(C)Cc1ccc(C(F)(F)F)cc1 | -7.0 | 3.4[16.7 µM]
CO[C@@H]1CN(C)C(=O)c2cc(NC(C)=O)ccc2OC[C@@H](C)N(C(=O)c2ccccc2)C[C@H]1C | -0.2 | -5.5[16.7 µM]
Cc1ccc(NC(=O)Nc2ccc3c(c2)C(=O)N(C)[C@@H]2CC[C@H](CC(=O)O)O[C@@H]2CO3)cc1 | 8.6 | 4.7[16.7 µM]
Cc1ccc(S(=O)(=O)Nc2cccc3c2O[C@H](CN(C)Cc2ccc(C(=O)O)cc2)[C@@H](C)CN([C@H](C)CO)C3=O)cc1 | 19.1 | -0.5[16.7 µM]
CN1C(=O)c2cc(NC(=O)c3cccc(Cl)c3)ccc2OC[C@@H]2O[C@@H](CC(=O)NC3CCCCC3)CC[C@@H]21 | 5.6 | 23.4[16.7 µM]
C[C@H](CO)N1C[C@H](C)[C@@H](CN(C)Cc2cncnc2)Oc2ncc(C#Cc3ccccn3)cc2C1=O | -9.2 | -1.4[16.7 µM]
Cc1cccc(CN(C)C[C@@H]2Oc3ncc(Br)cc3C(=O)N([C@H](C)CO)C[C@@H]2C)c1 | -11.6 | 17.3[16.7 µM]
C[C@@H]1CN([C@H](C)CO)C(=O)c2cc(NS(C)(=O)=O)ccc2O[C@@H](C)CCCCO[C@H]1CN(C)Cc1ccc(C(F)(F)F)cc1 | 30.7 | 3.7[16.7 µM]
CNC[C@H]1Oc2cc(C#Cc3cccc(OC)c3)ccc2S(=O)(=O)N([C@H](C)CO)C[C@@H]1C | 12.5 | -0.6[16.7 µM]
C[C@@H]1CN([C@H](C)CO)C(=O)Cc2cc(NC(=O)CCCCCC(=O)Nc3ccccc3N)ccc2O[C@H]1CN(C)C(=O)Nc1ccc2c(c1)OCO2 | 9.9 | -3.5[16.7 µM]
O=C(O)C[C@@H]1CC[C@H](NC(=O)Nc2ccccc2)[C@H](CO)O1 | -7.6 | -3.6[16.7 µM]
Cc1ccc(S(=O)(=O)N(C)C[C@@H]2Oc3c(NC(=O)c4cc(C)nn4C)cccc3C(=O)N([C@H](C)CO)C[C@@H]2C)cc1 | 0.2 | -35.6[16.7 µM]
CNC[C@@H]1Oc2c(NC(=O)Nc3ccc(OC)cc3)cccc2C(=O)N([C@@H](C)CO)C[C@@H]1C | 5.7 | 5.2[16.7 µM]
CC(C)NC(=O)N(C)C[C@H]1OCCCC[C@@H](C)Oc2ccc(NC(=O)Nc3cccc4ccccc34)cc2C(=O)N([C@H](C)CO)C[C@@H]1C | 18.6 | -13.6[16.7 µM]

Next part
SMILES | Yeast UUG start | HIV Env fusion
C[C@H]1CCCCO[C@H](CN(C)S(=O)(=O)c2ccc(Cl)cc2)[C@@H](C)CN([C@@H](C)CO)C(=O)c2cc(NC(=O)Nc3ccccc3)ccc2O1 | 4.5 | -3.1[16.7 µM]
Cc1noc(C)c1NC(=O)Nc1ccc2c(c1)C(=O)N([C@@H](C)CO)C[C@H](C)[C@@H](CN(C)C(=O)Cc1ccccc1)OCCCC[C@H](C)O2 | 12.8 | -9.6[16.7 µM]
C[C@H](NC(=O)C[C@@H]1C=C[C@@H](NC(=O)C2CCC2)[C@H](CO)O1)c1ccccc1 | -9.8 | -18.8[16.7 µM]
C[C@H](CO)N1C[C@H](C)[C@H](CN(C)S(=O)(=O)c2ccc(C#N)cc2)Oc2ncc(C#Cc3cccc(F)c3)cc2C1=O | 6.2 | 49.5[16.7 µM]
COc1cccc(CNC(=O)C[C@@H]2CC[C@@H](NC(=O)C3CCC3)[C@H](CO)O2)c1 | 5.5 | -2.0[16.7 µM]
CO[C@@H]1CN(C)C(=O)c2cc(NC(C)=O)ccc2OC[C@@H](C)N(Cc2cncnc2)C[C@@H]1C | -8.1 | -10.1[16.7 µM]
C[C@H](CO)N1C[C@H](C)[C@H](CN(C)C(=O)NC2CCCC2)Oc2ncc(C#CC3CCCCC3)cc2C1=O | 20.5 | -27.9[16.7 µM]
C[C@@H]1CN([C@H](C)CO)C(=O)Cc2cc(NC(=O)Nc3ccc(C(F)(F)F)cc3)ccc2O[C@H]1CN(C)Cc1ccc(C(=O)Nc2ccccc2N)cc1 | -6.4 | -8.1[16.7 µM]
CN(C)C(=O)C[C@@H]1C[C@H]2c3cc(NS(=O)(=O)c4ccc(F)cc4)ccc3O[C@H]2[C@@H](CO)O1 | 39.1 | -26.6[16.7 µM]
Cc1ccccc1-c1cnc2c(c1)C(=O)N([C@H](C)CO)C[C@H](C)[C@H](CN(C)Cc1ccccc1F)O2 | -4.4 | 14.6[16.7 µM]
COc1ccc(NC(=O)Nc2ccc3c(c2)C(=O)N([C@@H](C)CO)C[C@H](C)[C@H](CN(C)Cc2ccccc2)O3)cc1 | -3.5 | 7.4[16.7 µM]
CO[C@@H]1CN(C)C(=O)c2cc(NC(=O)c3cnccn3)ccc2OC[C@@H](C)N(C(=O)c2cnccn2)C[C@H]1C | 2.7 | 13.7[16.7 µM]
CN1C(=O)c2cc(NC(=O)Nc3ccccc3F)ccc2OC[C@@H]2O[C@H](CC(=O)O)CC[C@H]21 | 1.6 | 4.2[16.7 µM]
C[C@@H]1CCCCO[C@@H](CN(C)Cc2ccc(C(F)(F)F)cc2)[C@@H](C)CN([C@@H](C)CO)C(=O)c2cc(NC(=O)NC3CCCCC3)ccc2O1 | 17.6 | 8.8[16.7 µM]
C[C@@H]1CN([C@@H](C)CO)C(=O)c2cc(NC(=O)NC3CCCCC3)ccc2O[C@@H]1CN(C)C(=O)Nc1ccccc1 | 17.9 | 1.4[16.7 µM]
C[C@H](CO)N1C[C@H](C)[C@@H](CN(C)C(=O)Nc2cccc3ccccc23)Oc2c(NC(=O)Nc3ccc(F)cc3)cccc2C1=O | -1.2 | 0.6[16.7 µM]
CCCNC(=O)N[C@@H]1CC[C@H](CCn2cc(C3CC3)nn2)O[C@@H]1CO | -4.6 | 13.3[16.7 µM]

Source: PubChem
